# A1 apoptosis 2 – compounds inhibiting A1, read as caspase activation | caspase activation, % (test concentration not listed) | MEF A1-2A-BIM cells, caspase-Glo luminescence, 3 h; percent of clofoctol response, DMSO zero | 24,000 tested, under 10 active; in the data active = caspase activation above about 5.9%;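 note: wells of about 30 µL received 50 nL stock; the first replicate is given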
#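 Test system – A1-2A-BIM-expressing MEF cells · Input – 2500 cells/well · Medium – RPMI-1640 growth medium with 10% FBS · Compound dosing – 50 nL pinned compound · Timing – 3 h compound exposure at 37 °C · Technique – Caspase-Glo luminescence (DEVD substrate) · Evaluation – Caspase-3/7 activity from luminescence increase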
# * = called active by the depositor. Not all compounds are listed; rates above refer to the full screens.
SMILES,A1 apoptosis 2
C[C@@H]1CN([C@@H](C)CO)C(=O)c2cc(NS(C)(=O)=O)ccc2O[C@@H](C)CCCCO[C@H]1CN(C)C(=O)CCC(F)(F)F,-0.1
C[C@H](CO)N1C[C@H](C)[C@@H](CN(C)S(=O)(=O)c2cn(C)cn2)Oc2ccc(NC(=O)Nc3ccc(F)cc3)cc2C1=O,0.1
C[C@@H]1CN([C@H](C)CO)C(=O)Cc2cc(NC(=O)C3CCCCC3)ccc2O[C@@H]1CN(C)Cc1ccc(C(F)(F)F)cc1,2.5
CC(C)NC(=O)Nc1ccc2c(c1)CC(=O)N([C@H](C)CO)C[C@H](C)[C@H](CN(C)S(=O)(=O)c1ccccc1)O2,-0.3
C[C@@H]1CN([C@@H](C)CO)C(=O)c2cc(NC(=O)Nc3ccc(C(F)(F)F)cc3)ccc2O[C@@H](C)CCCCO[C@@H]1CN(C)S(=O)(=O)c1cccs1,-1.0
C[C@H](CO)N1C[C@H](C)[C@@H](CN(C)Cc2ccc(C(=O)Nc3ccccc3N)cc2)Oc2c(NC(=O)c3ccncc3)cccc2C1=O,0.5
C[C@@H]1CN([C@@H](C)CO)C(=O)c2cccc(NS(=O)(=O)c3cn(C)cn3)c2O[C@@H]1CN(C)CC1CC1,0.1
C[C@@H]1CN([C@@H](C)CO)C(=O)Cc2cc(NS(=O)(=O)c3ccc(Cl)cc3)ccc2O[C@H]1CN(C)CC1CCCCC1,0.1
C[C@@H]1CCCCO[C@@H](CN(C)C(=O)Nc2ccc(F)cc2)[C@@H](C)CN([C@@H](C)CO)C(=O)c2cc(N(C)C)ccc2O1,-0.2
COc1ccc(NC(=O)Nc2ccc3c(c2)C(=O)N([C@H](C)CO)C[C@H](C)[C@H](CN(C)C)O3)cc1,1.1
C=CCNC(=O)[C@@H]1[C@H]2C(=O)O[C@H](c3ccccc3)[C@H](c3ccccc3)N2[C@H](c2ccc(O)cc2)[C@@]12C(=O)Nc1ccc(C#Cc3ccc(OC)cc3)cc12,0.0
C[C@H]1CN([C@@H](C)CO)C(=O)CCCn2nncc2CO[C@H]1CN(C)C(=O)Nc1cccc(Oc2ccccn2)c1,-0.3

# Another view of part of the listing above.
> COc1ccc(NC(=O)Nc2ccc3c(c2)C(=O)N([C@H](C)CO)C[C@H](C)[C@H](CN(C)C)O3)cc1
  A1 apoptosis 2: 1.1
> C[C@@H]1CN([C@@H](C)CO)C(=O)c2cccc(NS(=O)(=O)c3cn(C)cn3)c2O[C@@H]1CN(C)CC1CC1
  A1 apoptosis 2: 0.1
> C[C@@H]1CN([C@@H](C)CO)C(=O)Cc2cc(NS(=O)(=O)c3ccc(Cl)cc3)ccc2O[C@H]1CN(C)CC1CCCCC1
  A1 apoptosis 2: 0.1
> C[C@H]1CN([C@@H](C)CO)C(=O)CCCn2nncc2CO[C@H]1CN(C)C(=O)Nc1cccc(Oc2ccccn2)c1
  A1 apoptosis 2: -0.3

# More results.
SMILES,A1 apoptosis 2
C[C@H](CO)N1C[C@H](C)[C@H](CN(C)C)Oc2ccc(NS(=O)(=O)c3cccs3)cc2C1=O,0.8
CNC[C@H]1Oc2ccc(NC(=O)Nc3c(C)noc3C)cc2CC(=O)N([C@@H](C)CO)C[C@@H]1C,-0.3
C[C@@H]1CN([C@@H](C)CO)C(=O)c2cc(NS(=O)(=O)c3ccc(F)cc3)ccc2O[C@H]1CN(C)Cc1ccc(C(=O)Nc2ccccc2N)cc1,1.5
COC(=O)CCCCCCC(=O)N/N=C/[C@H](O)[C@H](O)[C@@H](O)[C@H](C)O,1.6
CN1CCN(C(=O)C2=C[C@@H](c3ccccc3)C[C@@H](OCc3ccc(CO)cc3)O2)CC1,0.0
C[C@@H]1CN([C@@H](C)CO)C(=O)c2cc(N(C)C)ccc2O[C@H]1CN(C)C,0.8
C[C@@H]1CN([C@@H](C)CO)C(=O)Cc2cc(NC(=O)c3ccncc3)ccc2O[C@@H]1CN(C)S(=O)(=O)c1cn(C)cn1,1.2
COc1ccc(CN(C)C[C@@H]2Oc3ccc(NS(=O)(=O)c4ccc(F)cc4)cc3C(=O)N([C@@H](C)CO)C[C@@H]2C)cc1,-0.4
Cc1noc(C)c1S(=O)(=O)Nc1ccc2c(c1)C(=O)N([C@@H](C)CO)C[C@@H](C)[C@@H](CN(C)C(=O)Cc1ccccc1)OCCCC[C@@H](C)O2,0.8
Cc1noc(C)c1NC(=O)N(C)C[C@H]1Oc2ccc(NC(=O)CCN3CCOCC3)cc2CC(=O)N([C@H](C)CO)C[C@@H]1C,1.4
C[C@H]1CN([C@@H](C)CO)C(=O)c2cc(NC(=O)CCC(F)(F)F)ccc2O[C@H]1CN(C)C(=O)Nc1ccccc1,1.2
C[C@@H]1CN([C@H](C)CO)C(=O)c2cc(NC(=O)Nc3ccc(C(F)(F)F)cc3)ccc2O[C@@H](C)CCCCO[C@@H]1CN(C)S(=O)(=O)c1ccc(Cl)cc1,1.0
C[C@@H]1CN([C@H](C)CO)C(=O)c2cc(NS(=O)(=O)c3ccc(Cl)cc3)ccc2O[C@H]1CN(C)C,0.8
C[C@H](CO)N1C[C@H](C)[C@@H](CN(C)C(=O)Nc2ccc(C(F)(F)F)cc2)Oc2ccc(NC(=O)Nc3ccccc3)cc2C1=O,-1.1
COc1ccc(S(=O)(=O)Nc2ccc3c(c2)C(=O)N([C@@H](C)CO)C[C@H](C)[C@@H](CN(C)S(=O)(=O)c2ccc(OC)cc2)O3)cc1,0.0
C[C@@H]1CN([C@@H](C)CO)C(=O)c2cccc(NC(=O)CCCCCC(=O)Nc3ccccc3N)c2O[C@@H]1CN(C)C(=O)Nc1ccccc1,0.5
Cc1ccc(S(=O)(=O)N(C)C[C@H]2Oc3ccc(NC(=O)Nc4ccc(C(F)(F)F)cc4)cc3CC(=O)N([C@@H](C)CO)C[C@H]2C)cc1,1.2
COc1ccc(CCNC(=O)[C@@H]2c3ccccc3C(=O)N(Cc3ccccc3OC)[C@H]2c2ccc(CO)cc2)cc1,-0.2
C#Cc1ccc([C@H]2C=C(C(=O)N3CCOCC3)O[C@@H](OCC)[C@@H]2CCCO)cc1,1.6
C[C@@H]1CN([C@@H](C)CO)C(=O)Cc2cc(NC(=O)C3CC3)ccc2O[C@@H]1CN(C)C(=O)Nc1ccc(F)cc1,0.3
C[C@@H]1CCCCO[C@@H](CN(C)C(=O)CCCN(C)C)[C@@H](C)CN([C@@H](C)CO)C(=O)c2cc(NS(=O)(=O)c3ccccc3)ccc2O1,0.6
C[C@@H]1CN([C@H](C)CO)C(=O)c2cccc(NC(=O)Nc3cccc4ccccc34)c2O[C@@H]1CN(C)Cc1ccc(C(=O)Nc2ccccc2N)cc1,-0.2
C[C@H](CO)N1C[C@H](C)[C@H](CN(C)Cc2ccc(Oc3ccccc3)cc2)Oc2ccc(NC(=O)Nc3ccc4c(c3)OCO4)cc2CC1=O,-1.4
Cc1noc(C)c1NC(=O)N(C)C[C@@H]1Oc2ccc(NS(=O)(=O)c3ccc(F)cc3)cc2CC(=O)N([C@H](C)CO)C[C@H]1C,0.3
C[C@H]1CCCCO[C@H](CN(C)C(=O)c2ccccc2)[C@@H](C)CN([C@@H](C)CO)C(=O)c2cc(NS(=O)(=O)c3cn(C)cn3)ccc2O1,0.0
C[C@H]1CN([C@@H](C)CO)C(=O)c2cccc(NC(=O)Nc3ccc(F)cc3)c2O[C@@H]1CN(C)S(=O)(=O)c1cccs1,-0.7
C[C@@H]1CCCCO[C@@H](CN(C)CC2CCCCC2)[C@@H](C)CN([C@@H](C)CO)C(=O)c2cc(NC(=O)C3CCCCC3)ccc2O1,-0.2
C[C@H]1CN([C@@H](C)CO)C(=O)c2cccc(NC(=O)c3ccc(-c4nccs4)cc3)c2O[C@H]1CN(C)C(=O)Nc1cccc2ccccc12,0.3
C[C@H](CO)N1C[C@H](C)[C@H](CN(C)CC2CC2)Oc2ccc(NS(C)(=O)=O)cc2CC1=O,1.5
COc1ccc(S(=O)(=O)N(C)C[C@H]2OCCCC[C@H](C)Oc3ccc(NC(=O)c4ccncc4)cc3C(=O)N([C@H](C)CO)C[C@H]2C)cc1,0.6
Cc1noc(C)c1S(=O)(=O)N(C)C[C@H]1Oc2ccc(NC(=O)Nc3ccc(F)cc3)cc2CC(=O)N([C@@H](C)CO)C[C@@H]1C,-0.4
Cc1cc(C(=O)Nc2cccc3c2O[C@H](CN(C)S(=O)(=O)c2cn(C)cn2)[C@H](C)CN([C@H](C)CO)C3=O)n(C)n1,0.2
C[C@@H]1CCCCO[C@H](CN(C)C(=O)Nc2ccc(F)cc2)[C@H](C)CN([C@H](C)CO)C(=O)c2cc(NS(=O)(=O)c3ccccc3)ccc2O1,-0.2
C[C@@H]1CN([C@H](C)CO)C(=O)c2cc(NC(=O)C3CCCCC3)ccc2O[C@H]1CN(C)C(=O)Nc1ccc(C(F)(F)F)cc1,0.1
C[C@@H]1CN([C@@H](C)CO)C(=O)CCCn2cc(nn2)CO[C@H]1CN(C)Cc1ccc2c(c1)OCCN2C,-1.0
COc1ccc(NC(=O)Nc2ccc3c(c2)CC(=O)N([C@@H](C)CO)C[C@@H](C)[C@@H](CN(C)S(C)(=O)=O)O3)cc1,-1.1
C[C@H]1CN([C@@H](C)CO)C(=O)c2cccc(NC(=O)c3nc4ccccc4s3)c2O[C@@H]1CN(C)CC1CC1,0.3
C[C@@H]1CN([C@@H](C)CO)C(=O)Cc2cc(NC(=O)Cc3cn(C)c4ccccc34)ccc2O[C@H]1CN(C)Cc1ccc(C(F)(F)F)cc1,-0.5
C[C@H]1CN([C@@H](C)CO)C(=O)c2cc(NC(=O)NC3CCCCC3)ccc2O[C@H]1CN(C)Cc1ccccc1,-0.7
C[C@@H]1CCCCO[C@@H](CN(C)C(=O)Nc2ccc(C(F)(F)F)cc2)[C@@H](C)CN([C@H](C)CO)C(=O)c2cc(NC(=O)NC3CCCCC3)ccc2O1,-1.0
COc1ccc(S(=O)(=O)N(C)C[C@H]2Oc3ccc(NC(=O)CCCCCC(=O)Nc4ccccc4N)cc3C(=O)N([C@@H](C)CO)C[C@H]2C)cc1,1.3
C[C@@H]1CCCCO[C@H](CN(C)C(=O)Cc2ccccc2)[C@@H](C)CN([C@H](C)CO)C(=O)c2cc(NC(=O)c3ccncc3)ccc2O1,0.7
C[C@H](CO)N1C[C@H](C)[C@H](CN(C)C(=O)Nc2ccc3c(c2)OCO3)Oc2ccc(NS(C)(=O)=O)cc2C1=O,0.3
C[C@H]1CN([C@@H](C)CO)C(=O)c2cccc(NS(=O)(=O)c3cccs3)c2O[C@@H]1CN(C)Cc1ccc(C(F)(F)F)cc1,-0.6
C[C@H]1CN([C@@H](C)CO)C(=O)Cc2cc(NC(=O)C3CCCCC3)ccc2O[C@H]1CN(C)Cc1ccc(C(F)(F)F)cc1,1.9
Cc1noc(C)c1S(=O)(=O)Nc1cccc2c1O[C@H](CN(C)C(=O)NC1CCCCC1)[C@H](C)CN([C@@H](C)CO)C2=O,-1.3
Cc1noc(C)c1S(=O)(=O)Nc1ccc2c(c1)CC(=O)N([C@H](C)CO)C[C@H](C)[C@@H](CN(C)Cc1ccc(C(=O)Nc3ccccc3N)cc1)O2,-0.5
CNC[C@H]1Oc2ccc(N(C)C)cc2C(=O)N([C@H](C)CO)C[C@@H]1C,-1.0

# 2 compounds drawn at random from the list so far, as already listed:
SMILES,A1 apoptosis 2
C[C@@H]1CCCCO[C@H](CN(C)C(=O)Cc2ccccc2)[C@@H](C)CN([C@H](C)CO)C(=O)c2cc(NC(=O)c3ccncc3)ccc2O1,0.7
C[C@@H]1CCCCO[C@@H](CN(C)C(=O)Nc2ccc(C(F)(F)F)cc2)[C@@H](C)CN([C@H](C)CO)C(=O)c2cc(NC(=O)NC3CCCCC3)ccc2O1,-1.0

# Further entries follow:
SMILES,A1 apoptosis 2
COc1ccc(S(=O)(=O)N(C)C[C@@H]2Oc3c(NC(=O)Nc4ccccc4)cccc3C(=O)N([C@@H](C)CO)C[C@@H]2C)cc1,0.5
C[C@@H]1CN([C@H](C)CO)C(=O)c2cc(NS(C)(=O)=O)ccc2O[C@@H](C)CCCCO[C@H]1CN(C)C(=O)Nc1ccccc1,-0.8
CNC[C@H]1OCCCC[C@@H](C)Oc2ccc(NC(=O)CCC(F)(F)F)cc2C(=O)N([C@H](C)CO)C[C@@H]1C,0.8
C[C@@H]1CN([C@H](C)CO)C(=O)c2cc(NC(=O)Cc3ccccc3)ccc2O[C@@H]1CN(C)C(=O)Nc1ccccc1,-0.2
O=C(NO)c1cccc(C(=O)N/N=C/c2ccccc2)c1,-0.9
Cc1ccc(S(=O)(=O)N(C)C[C@H]2OCCCC[C@@H](C)Oc3ccc(NC(=O)CCCN(C)C)cc3C(=O)N([C@@H](C)CO)C[C@H]2C)cc1,0.2
O=C1O[C@@H](c2ccccc2)[C@@H](c2ccccc2)N2[C@@H](c3ccc(OCCO)cc3)[C@]3(C(=O)Nc4ccc(C#CC5(O)CCCCCC5)cc43)[C@@H](C(=O)NC[C@H](O)c3ccccc3)[C@H]12,1.2
O=C(CCCCCC(=O)N/N=C/C=C/c1ccccc1)NO,-0.6
CCO[C@H]1OC(C(=O)NC2CC2)=C[C@@H](C2CCCCC2)[C@@H]1CCCO,-0.7
C[C@@H]1CN([C@H](C)CO)C(=O)c2cc(NC(=O)c3ccccc3)ccc2O[C@@H](C)CCCCO[C@H]1CN(C)S(=O)(=O)c1cccs1,0.6
Cc1noc(C)c1NC(=O)Nc1ccc2c(c1)C(=O)N([C@@H](C)CO)C[C@H](C)[C@H](CN(C)Cc1ccccc1)OCCCC[C@H](C)O2,-0.2

# Screening results deposited in PubChem by Broad Institute.
